AmpC nodet inh: inhibitors of E. coli AmpC beta-lactamase without detergent. AmpC nitrocefin hydrolysis, absorbance 480 nm, no detergent; potencies from a single point are estimates. Potency, µM (doses to about 28.7 µM), inactives show at the top dose activity change, negative = inhibition. 1.8% of 71,000 active. AID 585; active = falling curve, for most hits resting on a single point; inconclusive = weak or doubtful change; inactive = flat or rising curve; also: % of control where 0% means no effect; a quarter of the inactives give rising signals
Target sequence (P00811 whole entry, looked up): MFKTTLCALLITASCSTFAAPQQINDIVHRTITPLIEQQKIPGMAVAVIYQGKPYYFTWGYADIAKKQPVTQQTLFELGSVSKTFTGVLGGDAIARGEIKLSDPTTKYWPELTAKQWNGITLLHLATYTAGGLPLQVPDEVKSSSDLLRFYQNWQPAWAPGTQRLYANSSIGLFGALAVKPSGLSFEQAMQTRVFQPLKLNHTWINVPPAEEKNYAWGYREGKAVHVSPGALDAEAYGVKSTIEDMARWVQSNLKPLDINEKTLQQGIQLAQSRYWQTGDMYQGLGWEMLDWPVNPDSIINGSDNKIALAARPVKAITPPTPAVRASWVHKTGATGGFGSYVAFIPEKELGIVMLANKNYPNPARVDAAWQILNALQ
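AmpC, 20 mM phosphate pH 7.0; 15 min cpd preinc, RT; start with nitrocefin (800 uM stock); A480 kinetic read, 20 s intervals, 4 min. No-enzyme wells = negative control.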
Starred values were filed as active, the others as inactive; & = joins results of further samples; [ ] = dose if it differs, or a comment. Potency is read from the fitted curve at half-maximal effect. The list is partial; the hit share may differ from the screen's.

SMILES | AmpC nodet inh
COc1ccc(S(=O)(=O)N2CCN(C(=O)c3cccc(Cl)c3)CC2)cc1 | 39%
O=C(Oc1ccc(Cl)cc1N1C(=O)CCC1=O)c1ccco1 | 3%
CCCCSc1nnc(C)c(=O)[nH]1 | -7%
N=C(N)SCCCN | 4%[5.75 µM]
N#Cc1cccc(-c2nc(NCc3cccnc3)c3ccccc3n2)c1 | 0.63µM*
CCOc1c(OC)cccc1C1CC(=O)Nc2cc(OC)c(OC)cc21 (stereo unspecified) | 30%
COc1cc2ccccc2cc1C(=O)Nc1ccc(S(=O)(=O)Nc2cc(C)on2)cc1 | -17%
Cc1nn(Cc2ccccc2Cl)c(C)c1C(=O)N1CCN(c2ccccc2)CC1 | 126%
O=C(Nc1cccc(C(=O)N2CCCCCC2)c1)c1ccco1 | -5%
CN=c1sc(C(=O)Nc2cccc(Cl)c2)cc(=O)n1C | -7%
c1ccc2ncc(-n3cnnn3)cc2c1 | -10%
COc1ccc2c(c1)c(CC(=O)N1CCOCC1)c(C)n2C(=O)c1ccc(Cl)cc1 | 145%&132%
Cc1cc(C)nc(SCC(=O)NCc2ccco2)n1 | 6%
C=C1CC[C@@H]2O[C@]2(C)CC[C@@H]2[C@H]1CC2(C)C | 117%
CCc1nn2cc(-c3ccccc3)nc2s1 | 26%

Some values from the results shown.
Entry of `CN=c1sc(C(=O)Nc2cccc(Cl)c2)cc(=O)n1C` in AmpC nodet inh: -7%
Entry of `O=C(Nc1cccc(C(=O)N2CCCCCC2)c1)c1ccco1` in AmpC nodet inh: -5%
Entry of `N=C(N)SCCCN` in AmpC nodet inh: 4%[5.75 µM]

The list continues:
SMILES | AmpC nodet inh
Cc1cccc(NC(=O)CCN2CC(C)OC(C)C2)c1 (stereo unspecified) | 1%
CCOC(=O)c1cccc(NC(=O)CCc2nc(-c3ccc(C)cc3)no2)c1 | -3%
O=C(O)C1=C/C(=C(/c2ccccc2)c2cc(C(=O)O)c(O)c3ccccc23)c2ccccc2C1=O | -4%&-2%[5.75 µM]
C[C@@H](C(=O)Nc1ccc2ccccc2c1)[C@H]1C[C@]1(C)[C@H](NC(=O)Oc1ccc(F)cc1)c1ccccc1 | -7%
COc1ccc(NC(=O)CCS(=O)(=O)c2ccc(OC)cc2)cc1 | -11%
CN=c1nc(-c2ccccc2)n(-c2ccccc2)s1 | -3%
COc1cc(Nc2cc(C)nc3ncnn23)cc(OC)c1OC | 11%
[O-]/[N+](=C\c1ccncc1)c1ccc(Br)cc1 | -7%
O=C(CN1CCCCC1)Nc1ccc(S(=O)(=O)N2CCCCCC2)cc1 | 1%
Cc1c(NC(=O)c2ccc(Cl)c(S(=O)(=O)N3CCOCC3)c2)c(=O)n(-c2ccccc2)n1C | -2%
CCOC(=O)CNS(=O)(=O)c1c(C)noc1C | -4%
CCCCC(=O)Nc1ccccc1C#N | 7%
O=C(O)CC1(CC(=O)O)Nc2ccccc2SC1=O | 1%[5.75 µM]
COc1ccc(CNc2ncnc3ccc(-c4cccc(C#N)c4)cc23)c(OC)c1 | 9%
CCOC(=O)Cn1c(=O)oc2cc(S(=O)(=O)N(CCN(C)C)Cc3ccccc3)ccc21 | 32%
CSc1ccccc1NC(=O)C1CC(c2ccccc2O)=NO1 (stereo unspecified) | -7%
COc1cccc(/C(O)=C2/C(=O)C(=O)N(Cc3ccco3)C2c2ccncc2)c1 (stereo unspecified) | 3%
O=C(Nc1nc2ccccc2[nH]1)c1ccc(F)cc1 | -3%
CCCS(=O)(=O)N1CCn2c(nc3ccccc32)C1 | 6%
COC(=O)C1=C(C)NC2=C(C(=O)CCC2)C1c1ccccn1 (stereo unspecified) | -3%
CCn1c(SCC(=O)Nc2cc(NC(C)=O)ccc2OC)nnc1-c1cccnc1 | 0%
NC(CSS(=O)(=O)O)=N[C@@H]1C[C@H]2CC[C@@H]1C2 | 3%[5.75 µM]
CCN(CC)S(=O)(=O)c1ccc(N=Cc2c(O)n(-c3ccccc3)c(=O)[nH]c2=O)cc1 | 23%
Cc1ccc(C(=O)Cn2c(C)cc(C)c(C#N)c2=O)cc1 | -6%
Cc1c(C(=O)OC2CCCC2)[nH]c2c1C(=O)CC(c1ccco1)C2 (stereo unspecified) | -8%
CN(C)Cc1ccccc1-c1nc(N(C)Cc2ccco2)c2ccccc2n1 | 51%
C=CCNC(=O)COc1ccc(S(=O)(=O)NC2CCCCC2)cc1 | 22%
Cc1cnc(NC(=O)CSc2nnc(COc3c(C)cccc3C)o2)s1 | 0%
CS(=O)(=O)N1CCC2(CC1)CN(c1ccccn1)C2 | -3%
O=C(c1csnn1)N1CCC2(CCCN(c3ncccn3)C2)CC1 | 30%
O=C(Nc1ccc2c(c1)OCCO2)c1cccnc1 | -3%
COc1ccccc1N1CCN(C(=O)c2cc3c(-c4ccc(Cl)cc4)nn(C)c3s2)CC1 | 3%
CC(c1ccccc1)n1cnc2ccccc21 (stereo unspecified) | 13%
Cn1c(=O)oc2cc(S(=O)(=O)N3CCCC(C(=O)NCc4ccc5c(c4)OCO5)C3)ccc21 (stereo unspecified) | 4µM*[single pt active]
Nc1nc(C(=O)N2CCOCC2)nn1S(=O)(=O)c1ccccc1 | 0%
COc1ccccc1CNc1nc(-c2ccc(C(=O)N(C)C)cc2)nc2ccccc12 | 116%
COCCn1nnnc1SCC(=O)c1ccccc1 | 5%
COC(=O)C(O)(CC(=O)Nc1ccc(Cl)cc1F)C(F)(F)F (stereo unspecified) | -5%
CC(C)Oc1cccc(C(=O)Nc2ccc(CN3CCOCC3)cc2)c1 | 42%
CN(C)Cc1ccccc1-c1nccc(N(C)C)n1 | 11%
CC(C)(Cl)Cl | -5%
COc1cc2nc(SCc3c(C)noc3C)n(CCC3=CCCCC3)c(=O)c2cc1OC | 99%
CCOC(=O)CN1C(=O)c2ccccc2C1=O | 23%
CCCC(OC(=O)CC1Sc2ccccc2NC1=O)C(=O)NCc1ccco1 (stereo unspecified) | 16%
COc1ccc(NC(=O)N2CCCCC2)cc1 | -10%

Another view of some results above.
molecule: COc1cc(Nc2cc(C)nc3ncnn23)cc(OC)c1OC
  AmpC nodet inh: 11%
molecule: Nc1nc(C(=O)N2CCOCC2)nn1S(=O)(=O)c1ccccc1
  AmpC nodet inh: 0%
molecule: CCOC(=O)CN1C(=O)c2ccccc2C1=O
  AmpC nodet inh: 23%
molecule: COc1cc2ccccc2cc1C(=O)Nc1ccc(S(=O)(=O)Nc2cc(C)on2)cc1
  AmpC nodet inh: -17%

The main list resumes, starting four compounds before the break.
SMILES | AmpC nodet inh
COc1cc2nc(SCc3c(C)noc3C)n(CCC3=CCCCC3)c(=O)c2cc1OC | 99%
CCOC(=O)CN1C(=O)c2ccccc2C1=O | 23%
CCCC(OC(=O)CC1Sc2ccccc2NC1=O)C(=O)NCc1ccco1 (stereo unspecified) | 16%
COc1ccc(NC(=O)N2CCCCC2)cc1 | -10%
CCC(C)[C@H](NC(=O)NCc1ccc(Cl)cc1)C(=O)OC (stereo partly specified) | 3%
CC(C(=O)Nc1ccc2c(c1)OCO2)N(c1ccc(Cl)cc1)S(C)(=O)=O (stereo unspecified) | -1%
CC(C)OC(=O)c1ccc(OC(=O)c2cccnc2)cc1 | 22%
COc1ccccc1N1CCN(C(=O)CCc2ccc(S(=O)(=O)NC(C)C)cc2)CC1 | 86%
Fc1ccc(C(OCCN2CCN(CCCc3ccccc3)CC2)c2ccc(F)cc2)cc1 | 13%
CCc1c(C)nc2cc(-c3cc(OC)cc(OC)c3)nn2c1N1CCCC1 | 88%
CCCC1C(c2ccccc2)C(C#N)(C#N)C2(C#N)CC1(N)NC2=O (stereo unspecified) | 32%
COc1cc2c(cc1NC(C)=O)CCCC2 | 2%
COc1cc(C(=O)Nc2nc(N)n(-c3ccccc3)n2)cc(OC)c1OC | 4%
CCOc1ccc(-c2nnn(CC(=O)c3ccc4c(c3)OCCO4)n2)cc1 | -7%
Clc1ccc(NCc2nncn2-c2ccccc2)cc1 | 20%
CCOCCCNC(=O)c1ccc(OC(C)=O)cc1 | 12%
CC1CCN(c2nc3ccccc3nc2C(C#N)C(=O)OC2CCCCC2)CC1 (stereo unspecified) | -5%
O=C(Nc1nc2ccccc2n1CCOc1ccc(Cl)cc1)c1ccco1 | 11%
O=C(CSc1nnc2scc(-c3ccccc3)n12)NCc1ccc2c(c1)OCO2 | -2%
Nc1nnc(SCC(=O)c2ccccc2)s1 | -8%
CC1=CC2=C(OC1N(C)C)c1cccc3cccc(c13)C2=O (stereo unspecified) | -18%
O=C(Nc1cccnc1)c1noc2c1CCCCC2 | 2%
O=C(Oc1ccccc1)N1CCC[C@@]2(CCN(Cc3ccccc3)C2)C1 | 32%
CCOc1cc(N2CCOCC2)c(OCC)cc1NC(=O)COC(=O)c1cc(C)oc1C | 56%
COc1ccccc1NC(=O)CSc1nnc(Cn2nnc(-c3ccccc3)n2)n1-c1ccccc1 | 9%
CCCCCCCCCCCCCCCC(=O)O[C@H](CC(=O)O)C[N+](C)(C)C | 123%&119%
CCCN(CCC)C(C(=O)Nc1cccc(OC)c1)c1ccccc1 (stereo unspecified) | -3%
CC(C(=O)NC1=NCCS1)N1C(=O)c2ccccc2C1=O (stereo unspecified) | -5%
CCN(CC)c1ccc2cc(C(=O)O)c(=O)oc2c1 | 1%
Cc1ccc(-n2c(C)nc3c(cnn3-c3ccc(F)cc3)c2=O)cc1 | 20%
CCOC(=O)N1CCC(N(CCOC)C(=O)Nc2ccc(CC)cc2)CC1 | 69%
CCOC(=O)c1[nH]c(C)c(C(=O)Nc2ccc3c(c2)OCCO3)c1C | 19%
Cn1c(=O)c2[nH]c(CCS)nc2n(C)c1=O | -4%[5.75 µM]
COCCCn1cnc2c(c1=O)c1nc3ccccc3nc1n2-c1ccccc1 | 109%

Gathered by group, those above containing two or more sulfur atoms
SMILES | AmpC nodet inh
NC(CSS(=O)(=O)O)=N[C@@H]1C[C@H]2CC[C@@H]1C2 | 3%[5.75 µM]
Cc1cnc(NC(=O)CSc2nnc(COc3c(C)cccc3C)o2)s1 | 0%
O=C(CSc1nnc2scc(-c3ccccc3)n12)NCc1ccc2c(c1)OCO2 | -2%
Nc1nnc(SCC(=O)c2ccccc2)s1 | -8%

Other records:
SMILES | AmpC nodet inh
COC(=O)c1ccccc1NC(=O)c1noc2c1CCCC2 | 51%
CCOC(=O)CSc1nc(C)c2cc(OC)ccc2n1 | 26%
CCCCOc1ccc(/C(O)=C2/C(=O)C(=O)N(CCCOC)C2c2ccncc2)cc1C (stereo unspecified) | -4%
Cc1ccnc(SCC(=O)Nc2sc3c(c2C#N)CCCC3)n1 | 81%
CCCCn1c(SCC(N)=O)nnc1-c1ccco1 | 9%
COc1ccc(-c2nc(C#N)c(N3CCN(c4cccc(Cl)c4)CC3)o2)cc1OC | 32%
CC1(C)N=C(c2ccc(Cl)cc2Cl)C(=O)N1 | 8%
Cc1nc2c(oc3ccccc32)c(=O)o1 | -18%
CC(=O)NC(c1ccco1)c1ccc2cccnc2c1O (stereo unspecified) | 8%
Fc1ccccc1Cn1nnc2c(-n3ccnc3)ncnc21 | 5%
Cc1cc(Cl)ccc1OCC(=O)NCCC(=O)O | 1%
O=C(CN1CCOCC1)Nc1ccc(-c2nc3ccccc3[nH]2)cc1 | -11%
C[C@H]1C[C@@H]2[C@H]3CCC4=CC(=O)C=C[C@@]4(C)[C@]3(Cl)[C@@H](Cl)C[C@]2(C)[C@]1(O)C(=O)COP(=O)(O)O | -15%[5.75 µM]
COC(=O)c1ccc(NC(=O)CN(c2ccc(OC)cc2)S(C)(=O)=O)cc1 | 1%
O=C(NCc1ccccn1)C(C(=O)c1ccc(F)cc1)n1ccccc1=O (stereo unspecified) | -7%
CCOC(=O)Cc1csc(NC(=O)CCc2ccc(S(=O)(=O)N3CCOCC3)cc2)n1 | 40%
O=C1/C(=N/n2cnnc2)c2ccccc2N1Cc1ccccc1 | 3%

Screening data (PubChem BioAssay)
